CHT block: inhibitors of human choline transporter CHT | Q9GZV3 | 310,000 compounds, 0.86% hits | AID 488975 | B-score at 10 µM | CHT-expressing cells, membrane potential dye, choline response; hits give low values;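 active = B-score over 3 SD under the library average, and starting fluorescence ratio not unusually high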;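 also: choline stimulus applied at its EC90 after an EC20 pre-addition; B-score computed on integrated fluorescence ratio after choline addition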
Calls only; i = inactive. An excerpt; most or all hits stand in other tables.

CHT block | molecule
i | Cc1cccc(N2CC(C(=O)Nc3nnc(SCC(=O)Nc4nccs4)s3)CC2=O)c1 (stereo not given)
i | O=C(Cc1ccc(Br)cc1)Nc1ccc2[nH]ncc2c1
i | CC(C)Cn1c(SCC(=O)N2CCc3ccccc3C2)nc2cc(Cl)ccc2c1=O
i | CN(C)CCCOC(=O)Cc1ccc(Cl)cc1
i | COc1cccc(CN(C)C(=O)c2ccccc2SCC(=O)N2CCCC2)c1
i | O=C(Nc1cccc([N+](=O)[O-])c1)c1ccccc1
i | Cc1cc(NS(=O)(=O)c2ccc(NC(=O)N[C@H](C(=O)O)C(C)C)cc2)no1
i | O=C(O)CCc1ccc(S(=O)(=O)NCCc2ccccc2)cc1
i | Cc1nnc(SCC(=O)N(C)Cc2ccccc2)[nH]c1=O
i | COc1ccc(CN2CCN(Cc3ccc(C(F)(F)F)cc3)CC2)cc1
i | N#Cc1cc2c(nc1SCC(=O)O)CCCC2
i | CC(O)CNc1nc2c(c(=O)n(Cc3cccc(Cl)c3)c(=O)n2C)n1C (stereo not given)
i | CCN(CC(=O)NC1CCCC1)S(=O)(=O)c1ccc(C)cc1
i | CCc1nc(N)c(C#N)c(-c2ccc(OC)c(OC)c2)c1C
i | O=C(Cc1n[nH]c(=O)c2ccccc12)Nc1cccc(S(=O)(=O)N2CCCC2)c1

Additional records:
CHT block | molecule
i | CCOC(=O)C1CCN(C(=O)CN2C(=O)c3ccccc3Sc3ncccc32)CC1
i | O=C1C2CC=CCC2C(=O)N1c1n[nH]c(-c2ccccc2)n1 (stereo not given)
i | Cc1ccsc1/C=N/NC(=S)NCCc1ccccc1
i | Cc1ccnc(NC(=O)CCCNC(=O)c2ccc(Cl)cc2)c1
i | CCCS(=O)(=O)N1CCCC(c2nc(-c3cccc(OC)c3)no2)C1 (stereo not given)
i | Cc1nc2ccccc2c(=O)n1NC(=O)C1CCCCC1
i | COc1ccc(NC(=O)CN(C)CC(=O)Nc2ccccc2SC)cc1Cl
i | COc1ccc(-n2c(C)nc3cc(C(=O)NCc4ccc5c(c4)OCO5)ccc32)cc1
i | CCc1ccc(OCC(=O)OC(C)C(=O)NC2CC2)cc1 (stereo not given)
i | CCOc1ccccc1C(=O)NCCCN1CCN(CCCNC(=O)c2ccccc2OCC)CC1
i | COCCn1c(SCC(=O)c2c(-c3ccccc3)n(C)c3ccccc23)nnc1-c1ccncc1
i | COc1ccc(-n2c(Cc3cccn3C)nnc2SCC(=O)NCc2ccccc2Cl)cc1
i | CCOC(=O)Cc1csc2nc3sc(C)c(C)c3c(=O)n12
i | Cc1ccc(NC(=O)COC(=O)c2cccc(N3C(=O)c4ccccc4C3=O)c2)cc1
i | c1ccc(Cn2nnnc2C(c2cccs2)N2CCSCC2)cc1 (stereo not given)

A draw from above in order of number of heavy atoms, ascending:
CHT block | molecule
i | CCc1ccc(OCC(=O)OC(C)C(=O)NC2CC2)cc1 (stereo not given)
i | O=C1C2CC=CCC2C(=O)N1c1n[nH]c(-c2ccccc2)n1 (stereo not given)
i | COc1ccc(-n2c(C)nc3cc(C(=O)NCc4ccc5c(c4)OCO5)ccc32)cc1

Going on with the list.
CHT block | molecule
i | CC1CCCCN1S(=O)(=O)c1ccc(S(=O)(=O)NCCc2ccncc2)cc1 (stereo not given)
i | COc1cc2c(cc1OC)CN(C(=O)c1ccc(S(=O)(=O)N3CCCCC3)cc1)CC2
i | O=C(Nc1cccc(-c2nnc(-c3ccccc3)o2)c1)C1CCCO1 (stereo not given)
i | CCCc1nc2ccccc2n1CCOc1ccccc1
i | O=S(=O)(Nc1cccc2ccccc12)c1cccc2nonc12
i | COc1cccc2cc(C(=O)CS(=O)(=O)c3ccc(Cl)cc3)c(=O)oc12

Reformatted comma-delimited: 16 of the compounds above
molecule,CHT block
Cc1nc2ccccc2c(=O)n1NC(=O)C1CCCCC1,i
COc1ccc(NC(=O)CN(C)CC(=O)Nc2ccccc2SC)cc1Cl,i
COc1ccc(-n2c(C)nc3cc(C(=O)NCc4ccc5c(c4)OCO5)ccc32)cc1,i
CCc1ccc(OCC(=O)OC(C)C(=O)NC2CC2)cc1 (stereo not given),i
CCOc1ccccc1C(=O)NCCCN1CCN(CCCNC(=O)c2ccccc2OCC)CC1,i
COCCn1c(SCC(=O)c2c(-c3ccccc3)n(C)c3ccccc23)nnc1-c1ccncc1,i
COc1ccc(-n2c(Cc3cccn3C)nnc2SCC(=O)NCc2ccccc2Cl)cc1,i
CCOC(=O)Cc1csc2nc3sc(C)c(C)c3c(=O)n12,i
Cc1ccc(NC(=O)COC(=O)c2cccc(N3C(=O)c4ccccc4C3=O)c2)cc1,i
c1ccc(Cn2nnnc2C(c2cccs2)N2CCSCC2)cc1 (stereo not given),i
CC1CCCCN1S(=O)(=O)c1ccc(S(=O)(=O)NCCc2ccncc2)cc1 (stereo not given),i
COc1cc2c(cc1OC)CN(C(=O)c1ccc(S(=O)(=O)N3CCCCC3)cc1)CC2,i
O=C(Nc1cccc(-c2nnc(-c3ccccc3)o2)c1)C1CCCO1 (stereo not given),i
CCCc1nc2ccccc2n1CCOc1ccccc1,i
O=S(=O)(Nc1cccc2ccccc12)c1cccc2nonc12,i
COc1cccc2cc(C(=O)CS(=O)(=O)c3ccc(Cl)cc3)c(=O)oc12,i

Screening results as filed in PubChem BioAssay.
